Ecoli growth – E. coli growth inhibition; AID 1053175; actives 0.21% (n = 330,000); Escherichia coli growth, OD600, 23 h; hits give low values; OD600 absorbance (concentration not given with the values);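 active means OD600 absorbance below the run mean of sample wells minus 3.6 SD, in any replicate, cut at about 0.56 in these data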;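 further: stock transfer was 300 nL into about 60 µL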
HNF4A DNA FP – change in binding of human HNF4 alpha to DNA | P41235 | HNF4a-FITC DNA binding, fluorescence polarization, 1 h | activity change, % at 10 µM | actives 0.3% (n = 360,000) | AID 1224865; in the data active means activity change above about 30%, passing the limit was not always enough;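 further: controls were the assay level and a saturating level of protein; the project sought stronger binding though the title names inhibitors; some compounds called inactive have numbers as strong as hits; positive values seem to mean higher polarization but the record does not say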
Beta2AR agonist – activates human beta-2 adrenergic receptor causing internalization; Am2.2-beta2AR cells, FAP receptor internalization, flow cytometry; reference of the scale not given here; actives 0.43% (n = 340,000); AID 504454; response, % (concentration not given with the values); P07550;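 active means response above a set limit, near 3 SD of response in nonfluorescent compounds, cut at about 42% in these data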;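 further: stock transfer was 100 nL into about 11 µL; a reference agonist was the positive control; negative values mostly stem from fluorescent compounds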
Target sequence (P07550 whole entry, looked up): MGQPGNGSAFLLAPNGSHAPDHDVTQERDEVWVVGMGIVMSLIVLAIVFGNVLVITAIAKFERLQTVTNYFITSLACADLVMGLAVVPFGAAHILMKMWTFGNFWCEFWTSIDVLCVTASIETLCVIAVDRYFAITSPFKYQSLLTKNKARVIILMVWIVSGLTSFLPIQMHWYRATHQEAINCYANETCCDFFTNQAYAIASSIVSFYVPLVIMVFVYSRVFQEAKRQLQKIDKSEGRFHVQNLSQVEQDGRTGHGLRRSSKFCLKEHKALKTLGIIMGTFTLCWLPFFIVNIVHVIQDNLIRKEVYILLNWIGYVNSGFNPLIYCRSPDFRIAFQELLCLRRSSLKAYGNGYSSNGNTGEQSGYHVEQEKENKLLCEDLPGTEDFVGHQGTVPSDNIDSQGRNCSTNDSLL
ALR inh – human ALR oxidase inhibition via reduced H2O2. actives 3.8% (n = 290,000). inhibition, % (concentration not given with the values). purified ALR, DTT oxidation, H2O2 HRP-luminol luminescence. P55789;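 active means mean and each replicate at 75% or more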;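 further: stock transfer was 7.5 nL into about 7.5 µL; 0% = neutral wells and 100% = wells with inactivated enzyme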
UCH37 inh – blocks the human deubiquitinase UCH37. Q9Y5K5. purified proteasome/UCH37, Ub-AMC cleavage fluorescence. inhibition, % (no concentration beside the values). actives 0.33% (n = 330,000);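 active means mean of two replicates above 20%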;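 further: 0% = compound-free wells with enzyme and 100% = wells lacking proteasome; stock transfer was 100 nL into about 20 µL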
Target sequence (Q9Y5K5 whole entry, looked up): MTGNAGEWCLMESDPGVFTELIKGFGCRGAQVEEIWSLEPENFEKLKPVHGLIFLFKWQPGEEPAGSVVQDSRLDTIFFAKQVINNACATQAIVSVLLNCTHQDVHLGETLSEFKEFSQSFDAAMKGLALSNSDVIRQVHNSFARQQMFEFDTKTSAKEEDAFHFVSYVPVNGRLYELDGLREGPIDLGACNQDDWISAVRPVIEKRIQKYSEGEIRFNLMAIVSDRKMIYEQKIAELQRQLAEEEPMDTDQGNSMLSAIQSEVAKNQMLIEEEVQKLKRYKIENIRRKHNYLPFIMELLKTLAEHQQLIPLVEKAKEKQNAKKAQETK
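Material: Human UCH37 enzyme supplied as purified proteasome complex | Schedule: 30 min preincubation with enzyme, 25 min cleavage at room temperature | Detection: AMC fluorescence 355/460 nm | Measure: % inhibition of Ub-AMC cleavage fluorescence | Controls: Wells without proteasome as full block, compound-free enzyme plus substrate as uninhibited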
rRNA inh HTS – inhibitors of bacterial rRNA selective over humanized ribosomes | E. coli WT GFP vs humanized-ribosome RFP mutants, fluorescence, 24 h; hits give low values; DMSO median 0, no signal -100 | AID 720706 | GFP signal change (wild-type ribosome), % (concentration not given with the values) | actives 1.6% (n = 350,000);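 active means significant combined selectivity score with lowered wild-type GFP, culture density cut under 30%, mutant RFP and density less affected; inactive means any of these conditions unmet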; further: one replicate is shown; some compounds called inactive have numbers as strong as hits
FGF22 binding – shifts melting point of recombinant human FGF22 | recombinant FGF22 thermal shift, SYPRO orange fluorescence; percent of sucrose octasulfate shift, DMSO zero | calls only at 9.99 µM | Q9HCT0 | actives 1.5% (n = 340,000) | AID 651658;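 active means melting point raised past a set limit in the mean and every replicate; three in four hits are not shown here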
Target sequence (Q9HCT0 whole entry, looked up): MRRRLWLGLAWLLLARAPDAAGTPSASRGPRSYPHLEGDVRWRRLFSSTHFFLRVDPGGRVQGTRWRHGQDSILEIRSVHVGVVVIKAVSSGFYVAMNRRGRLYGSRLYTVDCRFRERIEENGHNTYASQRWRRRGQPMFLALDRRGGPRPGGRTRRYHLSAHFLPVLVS
rRNA inh HTS OD600 – recorded beside rRNA inh HTS, whose call it bears; OD600 change, %; measured here: OD600 growth;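 optical density of the mix in the first replicate; 0 = DMSO median and -100 = no signal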
rRNA inh HTS RFP – recorded beside rRNA inh HTS, whose call it bears; RFP signal change, %; measured here: RFP humanized mutant strains;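 first replicate; 0 = DMSO median and -100 = no signal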
An asterisk follows results filed as active; i = inactive; · = no result given.

SMILES	Ecoli growth	HNF4A DNA FP	Beta2AR agonist	ALR inh	UCH37 inh	rRNA inh HTS	rRNA inh HTS OD600	rRNA inh HTS RFP	FGF22 binding
CN(CC(=O)Nc1ccc(F)cc1)C(=O)COC(=O)c1cc([N+](=O)[O-])ccc1N1CCOCC1	0.68	2.9	-7.2	-2.7	9.8	·	·	·	·
CCOC(=O)c1c(C)[nH]c(C(=O)OCC(=O)NC(C)C)c1C	0.753	0.2	-16.5	-1.9	3.1	7.6	9.7	-6.1	i
c1ccc(-c2noc(-c3cccc4ccccc34)n2)cc1	0.74	1.6	1.7	10.5	-4.1	·	·	·	·
O=C(Cc1sc(-c2ccccc2Cl)nc1-c1ccccc1)Nc1ccc(F)cc1	0.708	2.0	-1.0	-1.6	1.4	·	·	·	·
CCOC(=O)N1CCN(C(=O)c2ccc(Cn3c(=S)[nH]c4ccc(Br)cc4c3=O)cc2)CC1	0.646	3.5	-6.9	2.8	4.1	6.4	7.4	0.6	i
NC(=O)CC1(c2ccccc2)CCCCC1	·	-3.1	·	·	·	0.0	-2.5	0.6	i
CC1CCN(C(=O)C2CCCN(S(C)(=O)=O)C2)CC1 (stereo unspecified)	0.668	-0.1	0.6	-1.8	4.9	10.1	-4.1	-5.5	i
O=C(Cc1cccs1)NC1(C(=O)NC2CCCC2)CCCCC1	0.655	-3.6	-5.0	-0.6	1.5	2.2	4.4	4.7	i
Cc1nn(-c2ccc(Cl)cc2)c(=O)c2c(C)noc12	0.664	3.9	-3.7	-3.0	2.3	·	·	·	i
Cc1cc(NC(=O)c2ccccc2Cl)no1	0.649	-0.3	-4.6	-8.7	-3.2	·	·	·	·
O=C(OCCN1CCCCC1)c1cccc(Cl)c1	0.655	0.1	-2.9	-15.7	0.5	2.3	-0.4	0.8	i
COc1ccccc1CCC(=O)NNC(=O)c1ccc(Br)cc1	0.704	-0.1	-12.0	·	4.2	8.3	17.0	0.0	i
C=CCOc1ccc(C(=O)N(Cc2ccc(N(C)C)cc2)C2CCS(=O)(=O)C2)cc1 (stereo unspecified)	0.702	0.2	-9.8	3.4	3.9	·	·	·	·
COc1ccc(C)cc1S(=O)(=O)N(CC(=O)Nc1cccc([N+](=O)[O-])c1)c1ccc(C)cc1	0.701	0.8	-4.1	-4.7	2.2	6.5	4.5	-3.7	i
O=NN(CCc1ccncc1)c1ccc(OCc2ccccc2)cc1	0.69	-2.6	-0.7	3.5	1.8	-12.1	-22.2	7.4	i
O=C(O)c1ccc(N/N=C/c2ccc(-c3ccccc3Cl)o2)cc1	·	2.4	-8.9	·	·	-45.7	-70.1	-20.2	i
CC(C)S(=O)(=O)c1csc(NC(=O)Nc2cccc([N+](=O)[O-])c2)c1Cl	0.638	2.9	-1.4	-0.4	-0.8	-0.3	6.5	-0.2	i
COc1ccc(NC(=S)N2CCCC2)c(OC)c1	0.648	3.5	6.7	-37.9	4.0	7.2	7.2	-0.7	i
Cc1ccc(-c2nc(CC(=O)Nc3cccc(S(=O)(=O)NC4=NCCC4)c3)cs2)cc1	0.67	1.6	7.6	-7.0	2.0	-1.1	-16.8	1.3	i
O=C(COC(=O)c1ccc([N+](=O)[O-])o1)Nc1ncc(Cl)cc1Cl	·	-12.9	-3.5	-32.0	·	-4.0	1.4	0.2	i
CC(C)N(C(=S)Nc1ccc(S(=O)(=O)N2CCOCC2)cc1)c1ccccc1	0.638	1.1	·	-5.0	0.5	6.5	5.3	8.6	i
COC(=O)c1ccc(-c2nc(-c3ccc(Br)o3)no2)cc1	0.709	4.7	7.6	·	5.8	9.9	13.7	0.2	i
Cc1cc(NC(=O)C2CC=CCC2C(=O)O)no1 (stereo unspecified)	0.718	-1.6	·	0.3	-2.2	·	·	·	·
CC(Cc1cccs1)NC(=O)Nc1ccc([N+](=O)[O-])cc1 (stereo unspecified)	0.625	1.7	-3.5	-7.6	6.3	-53.4	-74.0	-16.9	i

Reformatted with values under each structure: entries from further up
Results follow in this order: Ecoli growth	HNF4A DNA FP	Beta2AR agonist	ALR inh	UCH37 inh	rRNA inh HTS	rRNA inh HTS OD600	rRNA inh HTS RFP	FGF22 binding
> COc1ccc(C)cc1S(=O)(=O)N(CC(=O)Nc1cccc([N+](=O)[O-])c1)c1ccc(C)cc1
  0.701	0.8	-4.1	-4.7	2.2	6.5	4.5	-3.7	i
> COc1ccc(NC(=S)N2CCCC2)c(OC)c1
  0.648	3.5	6.7	-37.9	4.0	7.2	7.2	-0.7	i
> CC(C)S(=O)(=O)c1csc(NC(=O)Nc2cccc([N+](=O)[O-])c2)c1Cl
  0.638	2.9	-1.4	-0.4	-0.8	-0.3	6.5	-0.2	i
> CC(C)N(C(=S)Nc1ccc(S(=O)(=O)N2CCOCC2)cc1)c1ccccc1
  0.638	1.1	·	-5.0	0.5	6.5	5.3	8.6	i
> O=NN(CCc1ccncc1)c1ccc(OCc2ccccc2)cc1
  0.69	-2.6	-0.7	3.5	1.8	-12.1	-22.2	7.4	i
> Cc1cc(NC(=O)C2CC=CCC2C(=O)O)no1 (stereo unspecified)
  0.718	-1.6	·	0.3	-2.2	·	·	·	·
> Cc1ccc(-c2nc(CC(=O)Nc3cccc(S(=O)(=O)NC4=NCCC4)c3)cs2)cc1
  0.67	1.6	7.6	-7.0	2.0	-1.1	-16.8	1.3	i

The list goes on.
SMILES	Ecoli growth	HNF4A DNA FP	Beta2AR agonist	ALR inh	UCH37 inh	rRNA inh HTS	rRNA inh HTS OD600	rRNA inh HTS RFP	FGF22 binding
O=C(CSc1nc2ccccc2s1)Nc1ccc(Cl)c(S(=O)(=O)N2CCOCC2)c1	0.683	1.6	-3.2	·	1.3	·	·	·	·
COc1ccc(-c2c(C)oc3c(CN4CCOCC4)c(O)ccc3c2=O)cc1OC	0.629	-3.0	-31.4	-12.6	-126.8	5.6	9.5	0.5	i
Cc1ccc(S(=O)(=O)Nc2cc(C(=O)NCCN(C)C)ccc2N2CCCCC2)cc1	0.711	4.8	17.7	39.6	-1.5	·	·	·	·
O=C(N/C(=C\c1ccco1)C(=O)N1CCOCC1)c1ccc([N+](=O)[O-])cc1	0.609	-0.8	12.1	-21.3	6.5	·	·	·	i
CCCCCc1cc(OC)cc2c1C(=O)OC(C)(C)O2	0.688	1.6	-0.7	·	4.4	-9.7	-8.1	0.5	i
O=C(O)CCC(=O)N1N=C(c2ccco2)CC1c1cccs1 (stereo unspecified)	·	-7.2	1.9	2.1	·	·	·	·	i
O=c1cc(Cl)[nH]c(=O)n1CCNc1ncc(C(F)(F)F)cc1Cl	0.774	50.5*	6.7	11.0	3.2	·	·	·	·
O=C(NCc1ccco1)c1cccc(S(=O)(=O)N2CCc3ccccc32)c1	0.709	3.9	-4.6	·	3.3	·	·	·	i
OC(c1ccc(Cl)cc1)c1nccc2ccccc12 (stereo unspecified)	0.672	2.2	-10.6	·	1.0	-21.9*	-15.8*	-1.1*	i
CCOc1ccc(CCNC(=O)COC(=O)Cn2cnc3ccccc3c2=O)cc1OCC	0.704	-1.2	2.1	-4.6	4.0	14.2	3.6	2.2	i
Cn1cc(C(=O)N/N=C/C2=C(N3CCOCC3)C(=C\c3ccccc3)/CC2)ccc1=O	·	7.8	-3.5	88.7*	·	·	·	·	·
COc1ccc(OCC(=O)NNC(=O)c2nn(C)c(=O)c3ccccc23)cc1	0.624	0.8	-1.7	-7.1	1.4	·	·	·	·

Random excerpt: 5 compounds from above, in no set order.
SMILES	Ecoli growth	HNF4A DNA FP	Beta2AR agonist	ALR inh	UCH37 inh	rRNA inh HTS	rRNA inh HTS OD600	rRNA inh HTS RFP	FGF22 binding
c1ccc(-c2noc(-c3cccc4ccccc34)n2)cc1	0.74	1.6	1.7	10.5	-4.1	·	·	·	·
CC(C)S(=O)(=O)c1csc(NC(=O)Nc2cccc([N+](=O)[O-])c2)c1Cl	0.638	2.9	-1.4	-0.4	-0.8	-0.3	6.5	-0.2	i
Cc1ccc(S(=O)(=O)Nc2cc(C(=O)NCCN(C)C)ccc2N2CCCCC2)cc1	0.711	4.8	17.7	39.6	-1.5	·	·	·	·
OC(c1ccc(Cl)cc1)c1nccc2ccccc12 (stereo unspecified)	0.672	2.2	-10.6	·	1.0	-21.9*	-15.8*	-1.1*	i
O=C(COC(=O)c1ccc([N+](=O)[O-])o1)Nc1ncc(Cl)cc1Cl	·	-12.9	-3.5	-32.0	·	-4.0	1.4	0.2	i

Next part.
SMILES	Ecoli growth	HNF4A DNA FP	Beta2AR agonist	ALR inh	UCH37 inh	rRNA inh HTS	rRNA inh HTS OD600	rRNA inh HTS RFP	FGF22 binding
COc1ccc(C2CC(=O)c3c([nH]c(C(=O)OC(C)C)c3C)C2)cc1OC (stereo unspecified)	·	2.0	-7.7	-9.3	·	6.8	14.6	-2.4	i
O=C(CCc1ccc(S(=O)(=O)N2CCOCC2)cc1)OCC(=O)c1ccccc1F	0.72	-3.5	4.7	·	2.8	-6.7	-4.1	-0.9	i
Cc1ccc(Cn2ncc3c(N4CCN(c5ccc(C)cc5)CC4)ncnc32)cc1	0.772	-32.5	9.7	-0.4	-0.6	·	·	·	·
COc1ccc(N2CCN(CCCn3c(=S)[nH]c4ncccc4c3=O)CC2)cc1	0.694	0.5	-6.3	6.3	2.7	·	·	·	·
Cc1cccc(NC(=O)CNC(=O)c2cc(S(=O)(=O)N(C)C)ccc2N2CCCC2)c1C	·	0.9	·	·	·	3.3	-7.3	-1.9	i
Cc1ccc(S(=O)(=O)N(Cc2ccc([N+](=O)[O-])cc2)C(=O)N2CCN(C)CC2)cc1	0.705	0.9	4.3	·	3.1	4.8	10.5	-1.3	i
CCN(C(=O)COC(=O)c1nc(Cl)ccc1Cl)C1CCS(=O)(=O)C1 (stereo unspecified)	0.635	-0.6	-4.4	-0.2	-2.2	8.2	3.8	5.7	i
C=CCNC(=O)COC(=O)c1ccccc1C(=O)N(C)C1CCCCC1	0.725	-1.5	2.6	-0.1	1.4	17.6	9.4	-2.2	i
O=C1COc2ccc(C(=O)COC(=O)CCOc3ccccc3)cc2N1	0.682	-1.2	2.2	-1.5	-0.2	9.7	9.5	2.7	i
Cc1ccc(C)c(NC(=S)NCC(c2ccccc2)N(C)C)c1 (stereo unspecified)	0.667	-1.6	-2.6	-0.8	2.7	3.0	4.3	-2.7	i
CCc1cccc(N(C(=O)c2csnn2)C(C(=O)NC2CCCCC2)c2cccnc2)c1 (stereo unspecified)	0.664	-1.2	-3.6	-2.4	2.3	2.3	2.5	-1.3	i
O=C(c1ccco1)N(Cc1cccnc1)C(c1ccccc1)c1nc2ccccc2[nH]1 (stereo unspecified)	·	0.0	·	·	·	13.9	14.3	3.2	i
O=C(CSc1nncs1)Nc1cc(-c2ccccc2)nn1-c1ccccc1	0.718	7.3	-14.2	-1.1	3.2	·	·	·	·
C/C(=N\NC(=O)c1nn(C)c(C)c1Br)c1cccc(NC(=O)c2ccoc2C)c1	·	4.4	-4.2	-3.9	·	·	·	·	·
COc1cc2cncc(Cc3ccc(Cl)cc3)c2cc1OC	0.59	4.6	-3.4	-20.2	3.0	·	·	·	·
C/C(=N\NC(=S)NC1CCCCC1)c1cccc(C(F)(F)F)c1	·	3.7	2.2	-5.5	·	3.6	7.8	0.7	i
Cc1nc(-c2cccc(NC(=O)c3cccc(S(=O)(=O)N4CCCC4)c3)c2)cs1	0.679	-0.1	29.3	-2.3	2.9	-29.4*	-18.1*	-6.6*	i
O=C(COc1cccc2ccccc12)N/N=C/c1ccco1	·	-1.4	2.4	-2.2	·	-10.8	-12.8	-4.2	i
CCOC(=O)c1[nH]cnc1C(=O)Nc1ccncc1	0.737	1.2	3.8	-3.3	3.9	·	·	·	·
Cc1c(NC(=O)Nc2cccc(C(F)(F)F)c2)c(=O)n(-c2ccccc2)n1C	0.642	2.5	-2.9	-0.1	2.4	6.2	8.3	1.5	i

Screening data as filed in PubChem BioAssay.

The list is partial. The share of hits here may be higher or lower than overall.
